Assay outcomes: PubChem BioAssay, several laboratories
Sa RN4220 lethal: growth inhibition of S. aureus RN4220, primary screen, OD600; inhibition, % (no concentration beside the values); 16 h; hit rate 0.33% among 330,000;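 active = z-score of -3 or lower and OD600 up to 0.18 on both plates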;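 note: plate controls were untreated cells for no effect and reference antibiotic for full effect; stock transfer was 100 nL into about 80 µL; one replicate is shown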
Autofluor counter: counter-screen for toxin protease inhibitors: compound fluorescence; compound autofluorescence counterscreen, microsphere flow cytometry; stronger effect = higher value; fluorescence intensity (no concentration beside the values); hit rate 3.1% among 360,000; AID 624483;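 active = at least 3 SD above the mean of all compounds, about 16000 in these data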;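 note: 100 nL of 1 mM stock went into each well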
Mtb hypoxia inh: PubChem AID 1159583. M. tuberculosis hypoxia-regulated fluorescent reporter, fluorescence. fluorescence inhibition, % (concentration not given with the values). hit rate 0.1% among 300,000;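 active = 35 to 45% if threefold the growth effect, above 45% if 1.5-fold the growth effect; inactive = the rest, general growth blockers included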;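 note: wells of about 50 µL received 100 nL stock; 0% = vehicle wells and 100% = reference inhibitor wells; whole bacteria with a GFP reporter of the hypoxia response; strong numbers were not always called active; many hits fall short of the cut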
BJeLR viability: MLPCN primary cell-based screen for lethality selective to Ras in HRASV12 cells; BJeLR (HRASV12) viability, CellTiter-Glo ATP luminescence, 48 h; reference of the scale not given here; AID 1554, 2009; inhibition, % (no concentration beside the values); hit rate 0.17% among 300,000;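 active = replicate mean above 50%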;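 note: 50 nL library stock added to about 25 µL; numbers are from one replicate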
PrP 5UTR inh: inhibition of PrP 5' UTR reporter expression; cell-based PrP 5' UTR mRNA reporter, plate reader; inhibition, % (concentration not given with the values); hit rate 0.35% among 340,000; AID 488862, 2010;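 active = every replicate at 50% or more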;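 note: 0 = median of the neutral control wells; tested in H4 reporter cells; numbers are from one replicate; inactives centre near -14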
ugtP null kill: growth inhibition of ugtP-null S. aureus, primary screen, RN4220 ugtP deletion, OD600; 16 h; some inactives read as strong as hits; growth inhibition, % (test concentration not listed); hit rate 0.54% among 330,000; AID 1259309, 2017;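 active = z-score under -3 and OD600 up to 0.15 on both plates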;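 note: plate controls were untreated wells for no effect and antibiotic for full effect; wells of about 80 µL received 100 nL stock; the first replicate is given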
Mtb hypoxia inh growth: further read-out of Mtb hypoxia inh, marked with its call; growth inhibition, %; measured here: M. tuberculosis growth (absorbance);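 0% = vehicle and 100% = reference antibiotic; read after six days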
* hit, by the source's call.

C[C@H]1O[C@H](O[C@H]2[C@H](O[C@@H]3CC[C@@]4(C)C(CC[C@]5(C)C4CC=C4[C@@H]6CC(C)(C)CC[C@]6(C(=O)O[C@@H]6O[C@H](CO)[C@@H](O)[C@H](O)[C@H]6O)CC[C@]45C)C3(C)C)O[C@H](C(=O)O)[C@@H](O)[C@@H]2O)[C@@H](O)[C@@H](O)[C@@H]1O (some centres undefined) was read as Sa RN4220 lethal 4.7, Autofluor counter 4186, PrP 5UTR inh -11 and ugtP null kill -2.
CCOC(=O)C1CCCN(C2=NC(=O)/C(=C/c3ccc(N(C)C)cc3)S2)C1 (centres undefined) was read as Sa RN4220 lethal -0.4, Autofluor counter 4157, Mtb hypoxia inh 9, BJeLR viability -4, PrP 5UTR inh 1, ugtP null kill -3 and Mtb hypoxia inh growth 2.
CC(C)[C@H](NC(=O)[C@@H]1CSC2c3ccccc3C(=O)N21)C(=O)N1CCCCC1 (some centres undefined) was read as Sa RN4220 lethal 2.1, Autofluor counter 5204, Mtb hypoxia inh 10, BJeLR viability 5, PrP 5UTR inh -10, ugtP null kill 10 and Mtb hypoxia inh growth 8.
`COc1ccc(C2SCCN2C(=S)Nc2cccc(Cl)c2)cc1` (centres undefined) gave Sa RN4220 lethal -3.0, Autofluor counter 2604, Mtb hypoxia inh 11, BJeLR viability 11, PrP 5UTR inh -25, ugtP null kill -3 and Mtb hypoxia inh growth 5.
`CC(OC(=O)c1ccc2ncsc2c1)C(=O)Nc1cccc(Cl)c1` (centres undefined) gave Sa RN4220 lethal 3.7, Autofluor counter 3799, Mtb hypoxia inh 15, PrP 5UTR inh -17, ugtP null kill -14 and Mtb hypoxia inh growth 0.
COc1ccc(C(CCNCc2ccc(F)cc2)c2ccc(F)cc2)cc1 (centres undefined) was read as Sa RN4220 lethal -12, Autofluor counter 1914, Mtb hypoxia inh 8, BJeLR viability -5, PrP 5UTR inh -8, ugtP null kill -25 and Mtb hypoxia inh growth 18.
Screening NC1=NC(c2ccc([N+](=O)[O-])cc2)N(c2ccc(F)cc2)C(N)=N1 (centres undefined) returned Sa RN4220 lethal -2.0, Autofluor counter 5587, Mtb hypoxia inh 12, BJeLR viability 10, PrP 5UTR inh -26, ugtP null kill 0 and Mtb hypoxia inh growth 4.
For COc1ccc(-n2c(SCc3cn4c(C)cccc4n3)nc3ccccc3c2=O)cc1OC the results were Sa RN4220 lethal -1.8, Autofluor counter 4524, Mtb hypoxia inh -4, BJeLR viability 0, PrP 5UTR inh -12, ugtP null kill 5 and Mtb hypoxia inh growth 0.
For NS(=O)(=O)c1ccc(NC(=O)/C=C/c2cccs2)cc1 the results were Sa RN4220 lethal 5.9, Autofluor counter 3838, Mtb hypoxia inh -4, BJeLR viability 18, PrP 5UTR inh -26, ugtP null kill 8 and Mtb hypoxia inh growth 4.
`CCOC(=O)Cn1c(=N)n(CCOc2ccc3ccccc3c2)c2ccccc21` gave Sa RN4220 lethal -4.8, Autofluor counter 4630, BJeLR viability 5, PrP 5UTR inh 0 and ugtP null kill -20.
Cn1sc(NC(=O)c2cccc(Cl)c2)nc1=O was read as Sa RN4220 lethal 2.6, Autofluor counter 22807*, Mtb hypoxia inh 1, BJeLR viability 4, PrP 5UTR inh -8, ugtP null kill -6 and Mtb hypoxia inh growth 4.
`Cc1cc(Cn2nnc(-c3ccc(Br)cc3)n2)cc(C)c1O` gave Sa RN4220 lethal 0.3, Autofluor counter 3982, Mtb hypoxia inh 6, PrP 5UTR inh -7, ugtP null kill 11 and Mtb hypoxia inh growth 11.
CCC(C)[C@H](NC(=O)C1CC(=O)N(c2ccc3c(c2)OCO3)C1)C(=O)NC1CCCCC1 (some centres undefined) was read as Sa RN4220 lethal 1.8, Autofluor counter 4985, Mtb hypoxia inh -8, BJeLR viability 2, PrP 5UTR inh -17, ugtP null kill -7 and Mtb hypoxia inh growth -13.
For Cc1ccc(SCC(=O)NC(=O)Nc2ccc3c(c2)OCCO3)c(C)c1 the results were Sa RN4220 lethal 3.8, Autofluor counter 2282, Mtb hypoxia inh 5, BJeLR viability 3, PrP 5UTR inh 0, ugtP null kill 0 and Mtb hypoxia inh growth 3.
Screening Fc1ccc(CNC(=S)NCc2ccc(F)cc2)cc1 returned Sa RN4220 lethal -4.6, Autofluor counter 5051, Mtb hypoxia inh 0, BJeLR viability -3, PrP 5UTR inh -8, ugtP null kill 5 and Mtb hypoxia inh growth -9.
For CCc1nc(SCc2ccccc2)n[nH]1 the results were Sa RN4220 lethal 2.7, Autofluor counter 4095, Mtb hypoxia inh 3, BJeLR viability 11, PrP 5UTR inh -15, ugtP null kill -1 and Mtb hypoxia inh growth -3.
Screening COc1ccc(C2C=CCN(C(=O)c3ccc(C)cc3)CC(=O)N2Cc2ccc(F)cc2)cc1 (centres undefined) returned Sa RN4220 lethal 7.7, Mtb hypoxia inh 13, ugtP null kill 9 and Mtb hypoxia inh growth 9.
`O=C(NCc1ccccc1)c1ccc2nc(N3CCOCC3)sc2c1` gave Sa RN4220 lethal 3.2, Autofluor counter 4634, Mtb hypoxia inh 5, BJeLR viability 9, PrP 5UTR inh -11, ugtP null kill 8 and Mtb hypoxia inh growth -5.
`C/C(=C(\C#N)C(=O)NCCN1CCOCC1)N(C)C` gave Sa RN4220 lethal 0.4, Autofluor counter 7498, Mtb hypoxia inh 0, BJeLR viability -3, PrP 5UTR inh -27, ugtP null kill 1 and Mtb hypoxia inh growth -2.
`COCc1cc(C=NNC(=O)Cc2ccc(Cl)cc2)ccc1OC` gave Sa RN4220 lethal 1.1, Mtb hypoxia inh 2, ugtP null kill -2 and Mtb hypoxia inh growth 6.
COc1ccc(NC(=O)N(C)CC2Oc3c(NS(=O)(=O)c4cccs4)cccc3C(=O)N(C(C)CO)CC2C)cc1 (centres undefined) was read as Sa RN4220 lethal 3.9, Mtb hypoxia inh 5, ugtP null kill -1 and Mtb hypoxia inh growth 12.
For Cc1c(C(=O)Nc2ccccc2)oc2c1C(=O)CC(C)(C)C2 the results were Sa RN4220 lethal 6.5, Autofluor counter 10077, Mtb hypoxia inh 1, BJeLR viability -7, PrP 5UTR inh -25, ugtP null kill -3 and Mtb hypoxia inh growth 7.
Screening Cc1ncc([N+](=O)[O-])n1CC(=O)NC1CCCCC1 returned Sa RN4220 lethal 4.7, Autofluor counter 10034, Mtb hypoxia inh 10, BJeLR viability 1, PrP 5UTR inh -14, ugtP null kill 8 and Mtb hypoxia inh growth 11.
Screening COc1ccc(NC(=O)CCN2C(=O)NC3(CCCC3)C2=O)cc1Cl returned Sa RN4220 lethal -1.6, Autofluor counter 4161, Mtb hypoxia inh 1, ugtP null kill -6 and Mtb hypoxia inh growth 2.
For COc1ccc(OC)c(C=Nc2oc(-c3ccco3)c(-c3ccco3)c2C#N)c1 the results were Sa RN4220 lethal 5.1, Mtb hypoxia inh 7, ugtP null kill -6 and Mtb hypoxia inh growth 1.
Screening Cc1ccc(S(=O)(=O)N(C(=O)c2ccncc2)c2ccc3oc4c(c3c2)CCCC4)cc1[N+](=O)[O-] returned Sa RN4220 lethal 0.6, Autofluor counter 8628, Mtb hypoxia inh 5, BJeLR viability -10, PrP 5UTR inh -27, ugtP null kill 61 and Mtb hypoxia inh growth 1.
For O=C(Nc1nccc(-c2cccs2)n1)c1cccs1 the results were Sa RN4220 lethal 8.7, Autofluor counter 2674, BJeLR viability 2, PrP 5UTR inh -21 and ugtP null kill 9.
`Cc1sc2nc(C)n(/N=C/c3ccc(O)cc3O)c(=O)c2c1C` gave Autofluor counter 3452, BJeLR viability 8 and PrP 5UTR inh -6.
`O=C(CCN1C(=O)COc2ccccc21)NCCCN1CCN(c2ccccc2F)CC1` gave Sa RN4220 lethal 5.1, Autofluor counter 11079, Mtb hypoxia inh 7, BJeLR viability 6, PrP 5UTR inh -14, ugtP null kill 2 and Mtb hypoxia inh growth 3.
For CC1CC(=O)c2ccccc2C1C (centres undefined) the results were Sa RN4220 lethal 7.1, Autofluor counter 2767, Mtb hypoxia inh 4, PrP 5UTR inh -1, ugtP null kill 11 and Mtb hypoxia inh growth 1.
For O=C(/C=C/c1cccc([N+](=O)[O-])c1)NCC1CCCO1 (centres undefined) the results were Sa RN4220 lethal 1.0, Autofluor counter 4515, Mtb hypoxia inh 7, BJeLR viability -5, PrP 5UTR inh -17, ugtP null kill 4 and Mtb hypoxia inh growth 5.
`O=C(O)CCc1ccc(-c2ccc(Br)cc2)n1Cc1ccco1` gave Sa RN4220 lethal 11, Autofluor counter 10648, Mtb hypoxia inh 9, BJeLR viability -2, PrP 5UTR inh -16, ugtP null kill 32 and Mtb hypoxia inh growth -1.
O=C(CCC(=O)Nc1ccc(F)cc1)N/N=C/c1ccc(Br)cc1 was read as Autofluor counter 3949, BJeLR viability -1 and PrP 5UTR inh -11.
Screening Clc1ccc(OCc2nnc(-c3ccccc3Br)o2)cc1 returned Sa RN4220 lethal 12, Autofluor counter 16365*, Mtb hypoxia inh -2, BJeLR viability -4, PrP 5UTR inh -6, ugtP null kill -8 and Mtb hypoxia inh growth 2.
For CCN(CC)c1ccc(NS(=O)(=O)c2ccc(-c3ccc(=O)[nH]n3)o2)c(C)c1 the results were Sa RN4220 lethal 1.6, Autofluor counter 4135, Mtb hypoxia inh 9, BJeLR viability 6, PrP 5UTR inh -7, ugtP null kill 0 and Mtb hypoxia inh growth -13.
Screening C=CCNC(=O)/C(=C/c1ccc(Br)cc1)NC(=O)c1ccccc1OC returned Sa RN4220 lethal -2.3, Autofluor counter 3533, Mtb hypoxia inh 1, BJeLR viability -1, PrP 5UTR inh -12, ugtP null kill -6 and Mtb hypoxia inh growth 4.
`CCOc1ccc(NS(=O)(=O)c2ccc(NC(=S)NC(C)=O)cc2)cc1` gave Sa RN4220 lethal 5.7, Autofluor counter 2707, Mtb hypoxia inh 12, BJeLR viability 0, PrP 5UTR inh -25, ugtP null kill 13 and Mtb hypoxia inh growth 2.
For N/C(=N\OC(=O)N1CCOCC1)c1ccc(Cl)cc1 the results were Sa RN4220 lethal 3.6, Autofluor counter 2168, BJeLR viability -17, PrP 5UTR inh -30 and ugtP null kill 14.
Screening Cc1ccc2cccc(Oc3nnnn3-c3ccccc3)c2n1 returned Sa RN4220 lethal 2.2, Autofluor counter 8567, Mtb hypoxia inh 5, BJeLR viability -1, PrP 5UTR inh -7, ugtP null kill 1 and Mtb hypoxia inh growth -6.
Screening O=C(Nc1ncc(Br)s1)C(Cc1ccccc1)n1cccc1 (centres undefined) returned Sa RN4220 lethal -24, Autofluor counter 4149, Mtb hypoxia inh -6, BJeLR viability -1, PrP 5UTR inh 6, ugtP null kill -19 and Mtb hypoxia inh growth 8.
COc1ccc(NC(=O)CN(C)C(=O)c2cccc(-n3cccc3)c2)cc1 was read as Sa RN4220 lethal 0.7, Autofluor counter 5023, Mtb hypoxia inh 6, BJeLR viability -3, PrP 5UTR inh -13, ugtP null kill 3 and Mtb hypoxia inh growth 4.
`Cc1ccc(C2=Nc3ccccc3N(C(=O)c3ccccc3)C(C)C2)cc1` (centres undefined) gave Sa RN4220 lethal -5.5, Autofluor counter 2545, Mtb hypoxia inh 0, BJeLR viability -2, PrP 5UTR inh -2, ugtP null kill 8 and Mtb hypoxia inh growth -7.
For CC(=O)Nc1ccc(OCC(O)CNC(C)C)cc1 (centres undefined) the results were Sa RN4220 lethal 4.2, Autofluor counter 5973, Mtb hypoxia inh 1, PrP 5UTR inh 23, ugtP null kill -8 and Mtb hypoxia inh growth -3.
`Cc1c(NS(C)(=O)=O)cccc1-c1nc2cccnc2s1` gave Sa RN4220 lethal 4.1, Autofluor counter 3475, Mtb hypoxia inh 6, BJeLR viability 5, PrP 5UTR inh -21, ugtP null kill 5 and Mtb hypoxia inh growth 1.
For CC1(C)CC(=O)CC(=NNC(=O)c2ccc(-c3ccccc3)cc2)C1 the results were Sa RN4220 lethal -15, Mtb hypoxia inh 11, ugtP null kill 6 and Mtb hypoxia inh growth -6.

A draw from above in order of length of the SMILES, high to low:
For CC1(C)CC(=O)CC(=NNC(=O)c2ccc(-c3ccccc3)cc2)C1 the results were Sa RN4220 lethal -15, Mtb hypoxia inh 11, ugtP null kill 6 and Mtb hypoxia inh growth -6.
`Cc1c(NS(C)(=O)=O)cccc1-c1nc2cccnc2s1` gave Sa RN4220 lethal 4.1, Autofluor counter 3475, Mtb hypoxia inh 6, BJeLR viability 5, PrP 5UTR inh -21, ugtP null kill 5 and Mtb hypoxia inh growth 1.
For CC(=O)Nc1ccc(OCC(O)CNC(C)C)cc1 (centres undefined) the results were Sa RN4220 lethal 4.2, Autofluor counter 5973, Mtb hypoxia inh 1, PrP 5UTR inh 23, ugtP null kill -8 and Mtb hypoxia inh growth -3.
